Arbovirus inh: blocks arbovirus infection | 200,000 compounds, 0.37% hits | AID 1251 | arbovirus infection cell-based antiviral screen | inhibition, % at 10 µM;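 active = inhibition from about 30%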;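 also: bluetongue infection of BSR cells; cell survival read as ATP light after 72 h; 0% = infected wells without compound and 100% = uninfected wells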
RecA splice inh: Mtb RecA intein splicing inhibition | cell-free RecA intein splicing, fluorescence | inhibition, %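 (about 9 µM by stock and volumes)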 | 290,000 compounds, 0.75% hits; in the data active = inhibition above about 30%; inconclusive = no clear call, values can overlap the other calls;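 also: 0% = vehicle wells and 100% = reference inhibitor control wells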
Target sequence (P9WHJ3 whole entry, looked up, canonical isoform): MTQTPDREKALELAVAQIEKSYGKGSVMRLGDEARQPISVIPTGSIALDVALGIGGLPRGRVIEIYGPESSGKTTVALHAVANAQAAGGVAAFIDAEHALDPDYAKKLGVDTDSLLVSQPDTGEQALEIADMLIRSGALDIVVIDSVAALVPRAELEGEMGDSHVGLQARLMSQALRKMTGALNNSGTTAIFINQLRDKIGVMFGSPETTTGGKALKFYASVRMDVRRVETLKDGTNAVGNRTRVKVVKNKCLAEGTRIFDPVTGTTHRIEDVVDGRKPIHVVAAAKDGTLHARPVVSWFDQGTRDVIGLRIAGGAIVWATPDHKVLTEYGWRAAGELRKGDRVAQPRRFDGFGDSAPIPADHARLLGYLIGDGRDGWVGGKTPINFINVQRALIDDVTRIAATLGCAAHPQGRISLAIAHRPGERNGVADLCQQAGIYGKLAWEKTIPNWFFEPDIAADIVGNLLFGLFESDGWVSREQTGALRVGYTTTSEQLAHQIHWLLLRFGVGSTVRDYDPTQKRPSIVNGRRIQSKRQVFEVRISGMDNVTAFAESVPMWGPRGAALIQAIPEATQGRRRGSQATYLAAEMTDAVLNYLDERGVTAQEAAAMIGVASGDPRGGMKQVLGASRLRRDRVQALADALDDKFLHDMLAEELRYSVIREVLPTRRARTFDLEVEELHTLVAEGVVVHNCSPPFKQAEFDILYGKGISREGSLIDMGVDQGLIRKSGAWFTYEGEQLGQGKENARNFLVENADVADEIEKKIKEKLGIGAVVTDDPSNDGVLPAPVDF
Mtb bLac sens: beta-lactam sensitization of Mtb H37Rv; M. tuberculosis H37Rv growth with meropenem, percent inhibition; hits of this screen are not shown here; inhibition, % at 25 µM; 330,000 compounds, 0.27% hits;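 active = about 74% or more and at least 40 points above the plate without the antibiotic, then above 30% in a dose series; inconclusive = first-round hits that could not be retested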;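 also: growth measured after seven days incubation then overnight dye step; 0% = bacteria only wells and 100% = bacteria with antibiotic; twin plates without the antibiotic show which effects depend on it; some results filed as inactive read as strong as hits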
YopH PTP inh: inhibitors of Yersinia enterocolitica YopH tyrosine phosphatase. fluorescence Ex485/Em525. 140,000 compounds, 0.16% hits. AID 898. inhibition, %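 (about 10 µM by stock and volumes)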;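 active = inhibition of 50% or more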;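 also: controls were vehicle for no effect and minimum signal wells for full effect; inactives centre near -20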
Mtb growth: M. tuberculosis H37Rv growth inhibitors, H37Rv strain (AID 1626); M. tuberculosis H37Rv growth inhibition; higher % means a stronger effect; one-dose inhibition, % at 10 µM; IC50 in µM for titrated hits; 220,000 compounds, 0.95% hits;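 active = confirmed in a dose series; inconclusive = inhibition above 80% but not taken into the dose series; inactive = below 80% or under 30% at every dose of the series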;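 also: bacteria incubated seven days before Alamar blue readout; 0% = bacteria only wells and 100% = bacteria with antibiotic wells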
Arbovirus inh repeat: second read-out of Arbovirus inh, no call of its own (marks repeat the call); inhibition, %; measured here: 10K subset replicate screen; many hits read low in the repeat;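 first of two repeat runs on a subset; 0% = infected and 100% = uninfected wells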
Starred values were filed as active, the others as inactive; ? = inconclusive; · = not tested or not shown. These rows are one share of the data; count on the stated rates, not on these rows.

SMILES	Arbovirus inh	RecA splice inh	Mtb bLac sens	YopH PTP inh	Mtb growth	others
Cc1ccc(S(=O)(=O)N(C)C)cc1NC(=O)CN1CCCC1	·	-1.5	-11.4	·	·
O=C(c1ccco1)N1CCN(S(=O)(=O)c2ccc3c(c2)CCN3C(=O)C2CC2)CC1	-0.6	0.2	-8.8	-46.1	-6.8%
C1=CC2=NC34CCCCC3CC3=C(CCCC3)N4C2=CC1=NC1CCCCC1 (stereo not drawn)	·	3.8	93.9	·	·
COC(=O)c1cc(N=C(N)N=C(N)N)cc(C(=O)OC)c1	·	-2.1	-3.9	·	7.3%
CCn1cc(C(=O)O)c(=O)c2cnc(N3CCN(C(=S)Nc4ccccc4Cl)CC3)nc21	·	1.6	7.7	·	-4.8%
COc1cc(C(=O)OCC(=O)c2c[nH]c3ccccc23)ccc1OCC(=O)N1CCOCC1	5.9	2.9	?	-35.8	3.6%
Cc1ccc(C(=O)NCCCN2CCOCC2)c(C)c1	·	-0.7	-0.8	·	·
O=c1c2cccc(Cl)c2nc2n1Cc1ccccc1-2	·	-1.3	-1.2	·	0.2%
OC(CNCCc1ccc(Cl)cc1Cl)COc1ccccc1 (stereo not drawn)	·	-1.7	22.7	·	·
Cc1nn(CCCC(=O)NCCc2ccc(Cl)cc2)c(=O)c2nn(-c3ccccc3)c(C)c12	·	0.4	0.8	·	·
O=C(COC(=O)c1cc(-c2cccc3ccccc23)nc2ccccc12)NC1CCS(=O)(=O)C1 (stereo not drawn)	6.3	5.1	7.4	-30.6	-1.6%
O=C(COC(=O)/C=C/c1cnc2ccccc2n1)NCC(F)(F)F	-2.0	-17.4	-1.4	-7.6	-6.2%
Cc1cc(C)nc(SCc2nnc(SCC(N)=O)n2Cc2ccco2)n1	4.2	-0.7	-5.6	-10.9	1.4%
CCOC(=O)COc1cc2oc(=O)cc(C)c2cc1[N+](=O)[O-]	1.4	-0.8	-10.8	·	-3.1%
O=Cc1cccc(OC(=O)/C=C/c2ccco2)c1	·	-0.2	2.0	·	·
CCOC(=O)CCC(NC(=O)CCCCC(=O)NC(CCC(=O)OCC)C(=O)OCC)C(=O)OCC (stereo not drawn)	-10.9	0.5	-4.8	-21.2	-0.3%
Cc1cccc2sc(N(CCCN(C)C)C(=O)COc3ccc(Cl)cc3)nc12	0.6	0.3	49.5	·	1.9%
Cc1cc(NC(=O)c2cc(F)c(F)cc2Cl)no1	3.5	0.8	0.4	-16.1	-2.2%
CCc1cccc(CC)c1NC(=O)c1cccc(NC(=O)c2ccccc2)c1	-1.5	2.6	-16.0	-18.6	-1.0%
C=CCNC(=S)NNC(=O)c1csc(C)c1C	0.5	-1.5	-5.0	-27.2	5.4%
Fc1ccc2c(c1)/C(=N/Nc1ccccn1)CCS2	0.8	0.8	15.0	·	12.3%
CN(C)CCNC(=O)C(=O)NCC(c1ccc2c(c1)OCO2)N1CCN(c2ccc(F)cc2)CC1 (stereo not drawn)	·	-4.3	-2.6	·	·
O=C(COC(=O)C1(c2ccc(Cl)cc2)CCCC1)NCc1ccco1	6.8	8.7	-1.0	·	-1.3%
Cc1ccc(S(=O)(=O)N2CCN(C(=O)CN3CCc4ccccc4C3)CC2)cc1	10.7	1.4	-1.2	-45.7	-1.5%
Cc1ccc(S(=O)(=O)c2nc(C)oc2N2CCOCC2)cc1	0.2	-0.3	-4.6	·	-14.9%
COc1ccc(CC(=O)N2CCC(CCC(=O)Nc3ccccc3)CC2)cc1	·	1.1	-17.7	·	·
O=C(Cc1cccs1)Nc1nnc(SCc2ccc(C(F)(F)F)cc2)s1	7.7	0.5	6.4	-10.9	·
COc1cc(/C=C/C(=O)N(Cc2ccccc2)c2ccccn2)cc(OC)c1OC	1.6	-0.1	-9.9	-23.3	1.5%
CN(C)c1ccc(NC(=O)CN2CCC(C(=O)c3ccc(F)cc3)CC2)cc1	-6.2	-2.2	-5.3	-22.5	4.2%
COc1ccccc1Oc1ccc(S(=O)(=O)N2CCCCC2)cc1NC(=O)CCNC(C)=O	·	2.6	?	·	·
Cc1cccc(-n2c(-c3cccc([N+](=O)[O-])c3)nc3nc4ccccc4nc32)c1	0.2	-1.9	-2.5	-12.8	0.7%
COc1ccc(NC(=O)c2nn(C)c3c2CS(=O)(=O)c2ccccc2-3)cc1	·	-0.6	2.0	·	·
COc1ccc(N/C=C/C(=O)C(F)(F)F)cc1	-20.8	-4.5	93.3	-9.3	?
COC(=O)c1cc(NC(=O)C2(S(=O)(=O)c3ccc(Cl)cc3)CC2)cc(C(=O)OC)c1	-2.6	-1.3	-4.6	-5.7	-3.1%
O=C(O)c1ccc(COc2ccc3ccccc3c2)o1	·	-0.4	1.0	·	-9.1%
O=C(CSc1nc2ccccc2c(=O)n1NC(=O)Cc1ccccc1)NCCc1ccccc1	5.4	-1.1	2.4	-42.4	-8.3%
Cc1ccccc1Cc1n[nH]c(=S)n1N	6.5	-1.8	-7.8	-19.9	-2.6%
O=C(N/N=C/c1ccc(Cl)cc1)c1nc2ccc([N+](=O)[O-])cc2c(=O)[nH]1	7.3	-1.5	-1.3	·	-1.2%
Cc1ccc(-n2[nH]c(C)c(/C=N/c3ccccn3)c2=O)cc1	-7.7	2.3	-8.9	-37.0	-3.5%
N=C1S/C(=C\c2ccccc2F)C(=O)N1c1ccc(F)cc1	-8.1	0.9	-3.5	-41.6	-0.1%
CN(Cc1cccs1)C(=O)Cn1cnc2cc([N+](=O)[O-])ccc2c1=O	-0.1	-1.9	1.9	·	10.6%
O=C(NCC(c1cccnc1)N1CCN(c2ccccc2F)CC1)OCc1ccccc1 (stereo not drawn)	0.3	3.3	64.3	1.7	36.3%
O=C(NC12CC3CC(CC(C3)C1)C2)c1ccc(-c2ccc(Cl)cc2)o1	22.3	4.8	99.1	-28.3	?
Cc1[nH]c2ccccc2c1-c1csc(NC(=O)CN2CCOCC2)n1	-1.7	·	6.9	·	1.7%
CN(C)S(=O)(=O)c1ccc(N2CCCC2)c(C(=O)Nc2nc(-c3ccc(F)cc3)cs2)c1	-6.3	-1.6	-8.2	-32.9	4.1%
COc1ccc(-c2csc(N3CCSCC3)n2)cc1	·	0.0	-6.4	·	·
COC(=O)C(CC(C)C)NC(=O)c1ccc([N+](=O)[O-])cc1 (stereo not drawn)	-2.7	-1.9	79.9	2.8	14.0%
CC(C)c1ccc(NC(=O)C2CC(=O)N(C3CCCC3)C2)cc1 (stereo not drawn)	·	2.0	-2.3	·	·
C/C(=N\O)C1(C)N(O)C(C)(C)C(c2ccc(F)cc2)=[N+]1[O-] (stereo not drawn)	5.5	-5.5	-5.0	6.5	-9.7%
O=C(O)c1ccc(S(=O)(=O)Nc2ccc(O)c(Sc3nc4ccccc4s3)c2)cc1	2.6	-3.4	-0.5	·	1.1%
Cc1ccc2ncnc(Nc3cccc(C(=O)O)c3)c2c1	3.4	4.5	-0.4	·	3.6%
Cc1cccc(C(=O)OCC(=O)NCCNC(=O)COC(=O)c2cccc(C)c2C)c1C	·	2.0	-6.9	·	·
Cc1cc(C(=O)Nc2nc(C)c(C(=O)N(C)C)s2)ccc1[N+](=O)[O-]	4.2	-1.5	-4.0	-8.1	8.7%
Cc1ccc(Cl)cc1NC(=S)N(Cc1ccco1)C(C)c1cccs1 (stereo not drawn)	2.3	17.9	1.4	·	4.8%
O=C(CSc1nnc(-c2cccs2)n1Cc1ccccc1)N1CCc2ccccc2C1	3.5	7.9	-10.9	6.6	-0.3%
OC(COc1ccc(Cl)cc1)CSc1ccccn1 (stereo not drawn)	·	3.4	4.0	·	·
Cc1cc(Cl)c2oc(C(=O)NCC(C)(C)N3CCOCC3)c(C)c2c1	·	-3.5	79.8	·	·
CCc1ccc(NC(=O)C(C)OC(=O)c2cccc(S(=O)(=O)N3CCc4ccccc4C3)c2)cc1 (stereo not drawn)	3.5	·	-3.5	-23.4	-6.1%
CCOc1ccc(NC(=O)Cn2nnc(-c3ccccc3NC(=O)C3CC3)n2)cc1	-6.0	-1.6	-3.6	-13.7	-1.2%
O=C(CCCn1c(=O)[nH]c2ccsc2c1=O)NC1CCCCC1	·	2.5	3.3	·	·

No new results follow: an excerpt of the list.
SMILES	Arbovirus inh	RecA splice inh	Mtb bLac sens	YopH PTP inh	Mtb growth	others
COc1ccc(-c2csc(N3CCSCC3)n2)cc1	·	0.0	-6.4	·	·
COC(=O)C(CC(C)C)NC(=O)c1ccc([N+](=O)[O-])cc1 (stereo not drawn)	-2.7	-1.9	79.9	2.8	14.0%
CC(C)c1ccc(NC(=O)C2CC(=O)N(C3CCCC3)C2)cc1 (stereo not drawn)	·	2.0	-2.3	·	·
C/C(=N\O)C1(C)N(O)C(C)(C)C(c2ccc(F)cc2)=[N+]1[O-] (stereo not drawn)	5.5	-5.5	-5.0	6.5	-9.7%
O=C(O)c1ccc(S(=O)(=O)Nc2ccc(O)c(Sc3nc4ccccc4s3)c2)cc1	2.6	-3.4	-0.5	·	1.1%
Cc1ccc2ncnc(Nc3cccc(C(=O)O)c3)c2c1	3.4	4.5	-0.4	·	3.6%
Cc1cccc(C(=O)OCC(=O)NCCNC(=O)COC(=O)c2cccc(C)c2C)c1C	·	2.0	-6.9	·	·
Cc1cc(C(=O)Nc2nc(C)c(C(=O)N(C)C)s2)ccc1[N+](=O)[O-]	4.2	-1.5	-4.0	-8.1	8.7%
Cc1ccc(Cl)cc1NC(=S)N(Cc1ccco1)C(C)c1cccs1 (stereo not drawn)	2.3	17.9	1.4	·	4.8%
O=C(CSc1nnc(-c2cccs2)n1Cc1ccccc1)N1CCc2ccccc2C1	3.5	7.9	-10.9	6.6	-0.3%
OC(COc1ccc(Cl)cc1)CSc1ccccn1 (stereo not drawn)	·	3.4	4.0	·	·
Cc1cc(Cl)c2oc(C(=O)NCC(C)(C)N3CCOCC3)c(C)c2c1	·	-3.5	79.8	·	·
CCc1ccc(NC(=O)C(C)OC(=O)c2cccc(S(=O)(=O)N3CCc4ccccc4C3)c2)cc1 (stereo not drawn)	3.5	·	-3.5	-23.4	-6.1%
CCOc1ccc(NC(=O)Cn2nnc(-c3ccccc3NC(=O)C3CC3)n2)cc1	-6.0	-1.6	-3.6	-13.7	-1.2%
O=C(CCCn1c(=O)[nH]c2ccsc2c1=O)NC1CCCCC1	·	2.5	3.3	·	·

(more compounds)
SMILES	Arbovirus inh	RecA splice inh	Mtb bLac sens	YopH PTP inh	Mtb growth	others
Cc1ccc(NC(=O)CSc2nnc(Cc3ccccc3)o2)c(C)c1	-0.9	-0.4	-4.7	·	6.5%
COC(=O)c1nn(-c2ccccc2)nc1-c1nn(-c2ccccc2)nc1C(=O)OC	10.1	10.2	-10.9	-14.4	8.6%
COc1ccccc1-c1nc(S(=O)(=O)c2ccccc2)c(N2CCOCC2)o1	·	4.0	-6.7	·	·
Cc1c(Cl)cccc1NC(=O)Nc1cc(C(C)(C)C)nn1C	·	2.4	-3.0	·	-5.5%
CCCOc1ccccc1C1NC(=O)NC(C)=C1C(=O)OCCOC(C)C (stereo not drawn)	0.7	·	5.1	-58.0	2.7%	Arbovirus inh repeat=0.0
CSc1ccc(Cl)c(C(=O)NCCOc2cc(C)ccc2C(C)C)c1	-7.8	21.0	13.0	-18.4	6.7%
CC(C)CN(C(=O)CCCSc1nc2ccccc2[nH]1)c1c(N)n(Cc2ccccc2)c(=O)[nH]c1=O	·	-0.3	-3.1	·	·
O=[N+]([O-])c1c(NCCO)cc(N2CCCCCC2)c2nonc12	·	5.3	-0.5	·	·
CN1CCN(c2nc(-c3ccc(Br)cc3)nnc2-c2ccccc2)CC1	-23.1	4.4	4.7	-15.3	-6.4%
N#Cc1c(F)cccc1N1CCC(C#N)CC1	·	-0.6	14.9	·	·
NS(=O)(=O)c1ccc(CCNC(=O)c2cccc([N+](=O)[O-])c2)cc1	2.6	2.6	-6.5	·	-4.7%
CC12CN3CC(C)(CN(C1)C3c1ccccc1F)C2 (stereo not drawn)	·	-1.1	-8.6	·	-4.5%
CCc1nnc(NC(=O)CCC(=O)N2CCN(c3cc(C)ccc3C)CC2)s1	·	-1.4	4.9	·	·
C[C@@H]1C=C(C(=O)N2CCN(Cc3ccccc3)CC2)O[C@H](OCc2ccc(CO)cc2)C1	0.1	-0.5	-4.5	·	-4.4%
Cc1csc(NC(=O)c2ccccc2O)n1	5.6	1.7	-0.1	-31.3	1.5%
